GALR2 agonist – GALR2 receptor agonists, primary screen, cell-based. GALR2-expressing cells, agonist activation read-out. 0.48% of 140,000 active. Galanin receptor type 2 (Homo sapiens), O43603. activation, %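 (tested at 5 µM)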;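 active = above mean plus 3 SD of all compounds, about 5% in these data, not always enough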;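 note: 0% = vehicle buffer wells and 100% = reference agonist at full effect; tested in CHO reporter cells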
Target sequence (O43603 whole entry, looked up): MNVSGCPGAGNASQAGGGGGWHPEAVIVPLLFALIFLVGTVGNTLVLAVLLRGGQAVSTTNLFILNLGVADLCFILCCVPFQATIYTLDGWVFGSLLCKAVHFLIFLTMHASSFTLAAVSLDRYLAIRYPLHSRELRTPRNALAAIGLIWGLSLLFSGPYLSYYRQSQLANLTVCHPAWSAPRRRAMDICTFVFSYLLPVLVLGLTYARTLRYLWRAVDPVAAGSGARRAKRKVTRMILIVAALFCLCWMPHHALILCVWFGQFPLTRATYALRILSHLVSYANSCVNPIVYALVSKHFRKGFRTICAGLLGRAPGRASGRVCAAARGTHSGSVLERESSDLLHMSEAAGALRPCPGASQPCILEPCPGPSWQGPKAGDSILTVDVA
HSV replic up – enhancers of HSV replication in host cells, fold increase, host cell viability; HSV replication augmentation in cells; maximum fold increase; 0.005% of 220,000 active; AID 1956, 2009;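 active = peak rise of 1.5-fold or more in the series; tested in PC3 cells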;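 note: first round at 10 µM; read as green reporter fluorescence; hits show the peak of a series up to 25 µM; 1 = signal of infected wells without compound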
PKD1 kinase inh – inhibitors of human PKD1 kinase, biochemical, fluorescence polarization. Serine/threonine-protein kinase D1 (Homo sapiens), Q15139. PKD1 kinase fluorescence polarization assay. inhibition, %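 (about 10 µM by stock and volumes)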. 0.056% of 200,000 active;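 active = inhibition of 50% or more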;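 note: controls were vehicle for no effect and a reference inhibitor for full effect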
RGS16-Gao HTS – modulators of RGS16 binding to Galphao, primary screen, biochemical, human proteins, multiplexed bead flow cytometry; binding response (% of control), % at 10 µM; 0.38% of 220,000 active; Regulator of G-protein signaling 16 (Homo sapiens) + Guanine nucleotide-binding protein …; bead-based flow cytometry RGS16-Galphao binding, fluorescence; actives lie on both sides;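 active = below 25% or above 175%, edge rows of some plates excepted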;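 note: Galphao activated by GDP with aluminum fluoride before binding; 100% = wells without compound and 0% = beads without RGS; some results beyond the cut were filed as inactive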
Target sequence (O15492 whole entry, looked up): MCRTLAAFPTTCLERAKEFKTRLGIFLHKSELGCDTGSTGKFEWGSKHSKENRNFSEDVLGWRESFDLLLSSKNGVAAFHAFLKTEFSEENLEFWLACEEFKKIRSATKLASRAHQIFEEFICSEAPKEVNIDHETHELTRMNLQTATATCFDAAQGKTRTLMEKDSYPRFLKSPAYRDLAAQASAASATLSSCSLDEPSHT
Target sequence (P09471 whole entry, looked up): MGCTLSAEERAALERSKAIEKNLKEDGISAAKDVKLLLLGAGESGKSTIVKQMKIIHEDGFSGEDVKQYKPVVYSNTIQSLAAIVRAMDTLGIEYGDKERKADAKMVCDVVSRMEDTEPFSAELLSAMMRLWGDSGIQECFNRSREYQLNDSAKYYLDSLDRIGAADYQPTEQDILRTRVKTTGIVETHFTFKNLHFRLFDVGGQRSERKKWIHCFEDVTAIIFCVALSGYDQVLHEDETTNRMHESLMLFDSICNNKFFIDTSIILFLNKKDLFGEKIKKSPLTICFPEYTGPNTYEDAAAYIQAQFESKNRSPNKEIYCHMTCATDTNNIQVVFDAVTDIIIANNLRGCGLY
INS promoter inh – inhibitors of insulin promoter-driven GFP, primary screen, imaging, TRM-6 cells (human fetal islet line), eGFP reporter, cell count; reporter expression induced with tamoxifen; inhibition, % at 2 µM; 0.9% of 130,000 active;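 active = inhibition above the mean plus 3 SD, with well images judged a real hit on visual review, cut at about 60% in these data, passing the limit was not always enough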
INS promoter inh cell count – also measured in INS promoter inh; calls as there; normalized cell count, %; measured here: cell count, toxicity; reference of the scale not given here;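 cells exposed to compound for 48 h; stained nuclei by imaging scaled within each plate; lower means fewer cells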
HSV replic up primary fold – further read-out of HSV replic up, marked with its call; fold increase; compound at 10 µM; measured here: primary screen fold increase 10 uM; tested in PC3 cells;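 GFP signal in the first replicate; 1 = infected wells without compound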
* hit, by the source's call; i = inactive; / = no result given. Hits appear at their usual frequency. Share with any hit: about 1.1%.

Compound	GALR2 agonist	HSV replic up	HSV replic up primary fold	PKD1 kinase inh	RGS16-Gao HTS	INS promoter inh	INS promoter inh cell count
CCCN1CN(Cc2ccccc2)CC2=C1CC(C)(C)CC2=O	-1.4	i	0.97	5	95	/	/
S=c1[nH]nc(CNc2cccc(Cl)c2)o1	/	i	0.96	-8	101	/	/
CCCn1c(C)cc(-c2csc(N)n2)c1C	-1.0	i	1.2	1	82	7	107
CC(=O)c1c(C)[nH]c(C(=O)N(CCc2ccccc2)Cc2ccccc2)c1C	/	i	0.98	4	97	-27	141
CC(C)(C)C(=O)Nc1nnc(-c2ccccc2)c(-c2ccccc2)n1	/	i	0.97	/	113	/	/
O=C(O)c1ccccc1N/N=C/c1cc(Br)cc(Br)c1O	/	i	1.1	/	105	/	/
O=S(=O)(c1ccc(F)cc1)N1CCn2c(nc3ccccc32)C1	-1.4	i	0.76	6	101	/	/
O=C(COC(=O)CCc1c[nH]c(=O)[nH]1)Nc1ccccc1Cl	-0.8	i	0.99	-12	103	-62	66
CC(=O)c1cc2c(cc1NC(=O)c1cc(C)nn1-c1ccccc1)OCO2	15*	/	/	-16	109	17	105
CCOC(=O)COc1ccc(S(=O)(=O)NCC2CCCO2)cc1 (centres undefined)	-1.1	i	1	-4	104	-300	64
CC(=O)NC1N=C(C)N(c2ccccc2)C1=O (centres undefined)	-1.7	i	0.86	-5	94	14	71
COc1ccc(C(=O)c2c(C)oc3cc([N+](=O)[O-])c(O)c([N+](=O)[O-])c23)cc1	-0.8	/	/	-17	111	/	/
COc1cccc(=O)c2c(C)n(CC(=O)c3ccccc3)c(C)c12	/	i	1.1	-9	105	-18	98
O=S(=O)(Nc1ncccn1)c1ccc(NC(=S)NCCc2ccccc2)cc1	/	i	1	-13	101	-14	136
CCOC(=O)C(NCCc1ccccc1)(NC(=O)CC)C(F)(F)F (centres undefined)	-1.4	i	0.94	1	106	/	/
COc1ccc(-c2cc(=O)[nH][nH]2)cc1	-0.8	i	1.1	-3	107	-29	51
CCCCn1c(C)nc2c(=O)n(C)c(=O)[nH]c21	0.6	i	0.87	-1	81	73*	101*
Cc1c(NS(=O)(=O)c2ccc(NCCN3CCOCC3)c([N+](=O)[O-])c2)c(=O)n(-c2ccccc2)n1C	/	i	0.98	0	103	/	/
CC1(C)N=C(SCC(=O)Nc2ccc(Cl)cc2)C(c2ccc(Cl)cc2)=N1	0.3	i	0.98	-9	99	/	/
CCOc1ccc2nc(COC(=O)c3cccs3)c(C(C)=O)[n+]([O-])c2c1	/	i	0.98	/	106	/	/
CCn1c(SC)nnc1C1CCN(S(=O)(=O)c2ccc(OC)cc2)CC1	-0.1	i	1	0	100	7	80
COc1ccc(N2C(=O)CC(N3CCN(Cc4ccc5c(c4)OCO5)CC3)C2=O)cc1 (centres undefined)	/	i	1	9	102	0	114
FC(F)(F)c1ccccc1NC(=S)N1CCCC1	/	i	0.94	/	92	/	/
COc1ccccc1CN1C[C@@H]2C[C@@H](c3[nH]c4ccc(C)cc4c3C)N3CCC[C@@]23C1=O	/	i	0.87	-4	99	/	/
O=C(Nc1nnc(Cc2ccccc2)s1)c1ccco1	-1.3	i	0.87	-4	116	-4	129
COc1ccc(C)c2sc(N(CCCN(C)C)C(=O)c3ccc(S(=O)(=O)N(C)C)cc3)nc12	/	i	0.91	0	101	-25	91
CCC(CC)c1nnc(NS(=O)(=O)Cc2ccccc2)s1	-1.2	i	0.72	1	101	71	146
O=C(Nc1cccc(F)c1)c1ccco1	/	i	1	2	7	0	99
COc1ccc(-c2cc3cc(C(=O)O)ccn3c2C(=O)c2ccccc2)cc1	/	i	1.1	/	95	/	/
Cc1c(Cl)cccc1NC(=S)N1CCCN(Cc2ccccc2F)C1	/	i	0.85	-4	101	-56	73
O=c1cc(CSc2ccc(S(=O)(=O)N3CCCCC3)cn2)nc2sccn12	-0.5	i	1	0	109	-21	126
COc1ccc(Cc2noc(-c3ccc(C)cc3)n2)cc1	-2.5	i	0.84	1	103	/	/
COC1(OC)N=C(N)C2(C#N)C(c3ccc(F)cc3)C12C#N (centres undefined)	-1.7	i	1	-12	116	-185	51
CC1(C)OC(=O)C(=CNC(CO)C(=O)O)C(=O)O1 (centres undefined)	/	i	1	3	99	9	67
Cc1cc(SCC(=O)c2cccs2)n2nc(C)c(-c3ccc(Cl)cc3)c2n1	-1.1	i	0.75	-5	92	17	138
CCCCCCCCOC(=O)c1c(CSC(=N)N)n(C)c2cc(Br)c(OC(C)=O)cc12	/	i	0.65	/	102	/	/
Cc1cc(=O)c2c(C)ccc(C)c2[nH]1	/	i	0.96	/	92	/	/
Cc1ccc(CNc2ccc(N3CCOCC3)c(C(=O)O)c2)s1	-0.3	i	1	2	108	/	/
O=C(COc1ccccc1[N+](=O)[O-])NNC(=O)Nc1cccc2ccccc12	/	i	1.1	7	104	50	66
C=CCn1c(-c2c(C)nc3cc(C)ccn23)n[nH]c1=S	-1.9	i	1.1	-9	93	/	/
Cc1ccc(CN(Cc2cc3cc(C)ccc3[nH]c2=O)C(=O)N2CCOCC2)cc1	0.4	i	0.83	-10	100	/	/
N#CCC(=O)N/N=C/c1cn(Cc2cccc3ccccc23)c2ccccc12	/	i	0.94	/	91	/	/
O=C(COC(=O)c1cccc(S(=O)(=O)NCc2ccccc2)c1)c1ccc2c(c1)OCCO2	-0.9	i	0.95	0	102	/	/
CC(C)CC(=O)Nc1cccc(-c2csc(-c3ccccc3)n2)c1	-2.6	i	0.9	3	102	-19	98
CCCCNS(=O)(=O)C1CCS(=O)(=O)C1 (centres undefined)	-2.4	i	0.87	-1	101	-44	154
Cn1nnnc1SCC(=O)Nc1ccccc1C(=O)NC1CC1	-2.5	i	1.1	-4	106	-41	114
CC1Cc2ccccc2N1C(=O)CSc1nc(-c2ccccc2)cs1 (centres undefined)	0.8	i	1	3	101	-2	131
COc1cc(C(c2nnnn2C2CCCC2)N2CCN(C)CC2)cc(OC)c1OC (centres undefined)	-1.8	i	1	-9	99	/	/
Cc1ccc2c(CC(=O)Nc3cccc(S(=O)(=O)N4CCOCC4)c3)coc2c1	/	i	0.91	2	141	-71	85
CCOC(=O)C1(CC2CCCCO2)CCN(C2CCSCC2)CC1 (centres undefined)	/	i	1.1	1	100	/	/

Filtered by structure, those above with a CF3 group.
Compound	GALR2 agonist	HSV replic up	HSV replic up primary fold	PKD1 kinase inh	RGS16-Gao HTS	INS promoter inh	INS promoter inh cell count
CCOC(=O)C(NCCc1ccccc1)(NC(=O)CC)C(F)(F)F (centres undefined)	-1.4	i	0.94	1	106	/	/
FC(F)(F)c1ccccc1NC(=S)N1CCCC1	/	i	0.94	/	92	/	/

(cont.)
Compound	GALR2 agonist	HSV replic up	HSV replic up primary fold	PKD1 kinase inh	RGS16-Gao HTS	INS promoter inh	INS promoter inh cell count
N#C/C(=C/c1ccc(N2CCOCC2)o1)C(=O)N1CCOCC1	-1.8	i	1.2	-6	51	-8	59
CCOC(=O)c1cc2c(ccn2-c2ccc(F)cc2)n1CC(=O)NC(C)(C)C	/	i	1.1	-1	97	/	/
O=C(NC(=S)NC(c1ccccc1)c1ccncc1)c1ccccc1 (centres undefined)	1.3	i	0.93	-4	98	-78	89
O=C(Nc1ccccc1Oc1ccccc1)c1cnccn1	-2.9	i	1	-5	98	30	122
COc1ccc([N+](=O)[O-])cc1Nc1ncnc2ccccc12	/	i	0.98	9	98	/	/
O=c1nc(N2CCOCC2)nc2n1CCO2	-2.3	i	0.99	-2	106	-338	54
CC(C)(C)NS(=O)(=O)c1ccc2c(c1)oc(=O)c1cc(S(=O)(=O)NC(C)(C)C)ccc12	-0.1	i	0.92	-10	99	46	62
CC(=O)NC(NC(=S)Nc1cccc(Br)c1)C(Cl)(Cl)Cl (centres undefined)	/	i	1.1	/	108	/	/
NC(=O)C1=C[C@@H](c2ccccc2)C[C@@H](OCc2ccc(CO)cc2)O1	/	i	0.85	-7	104	/	/
O=C(NC1CC(=O)c2sccc21)c1cccc(C(F)(F)F)c1 (centres undefined)	/	i	0.95	-4	104	/	/

Looked up one by one from the entries so far (7):
Compound	GALR2 agonist	HSV replic up	HSV replic up primary fold	PKD1 kinase inh	RGS16-Gao HTS	INS promoter inh	INS promoter inh cell count
O=C(COC(=O)CCc1c[nH]c(=O)[nH]1)Nc1ccccc1Cl	-0.8	i	0.99	-12	103	-62	66
COC1(OC)N=C(N)C2(C#N)C(c3ccc(F)cc3)C12C#N (centres undefined)	-1.7	i	1	-12	116	-185	51
CCOC(=O)C1(CC2CCCCO2)CCN(C2CCSCC2)CC1 (centres undefined)	/	i	1.1	1	100	/	/
COc1ccc(C(=O)c2c(C)oc3cc([N+](=O)[O-])c(O)c([N+](=O)[O-])c23)cc1	-0.8	/	/	-17	111	/	/
Cn1nnnc1SCC(=O)Nc1ccccc1C(=O)NC1CC1	-2.5	i	1.1	-4	106	-41	114
Cc1ccc(CN(Cc2cc3cc(C)ccc3[nH]c2=O)C(=O)N2CCOCC2)cc1	0.4	i	0.83	-10	100	/	/
Cc1ccc2c(CC(=O)Nc3cccc(S(=O)(=O)N4CCOCC4)c3)coc2c1	/	i	0.91	2	141	-71	85

Next structures:
Compound	GALR2 agonist	HSV replic up	HSV replic up primary fold	PKD1 kinase inh	RGS16-Gao HTS	INS promoter inh	INS promoter inh cell count
O=C(N/N=C/c1cccs1)/C(=C/c1ccccc1)NC(=O)c1ccccc1	-1.7	i	0.92	-5	116	64	96
CC(=O)c1ccc(N(C(=O)Cn2nnc3ccccc32)C(C(=O)NC2CCCCC2)c2cn(C)nc2C)cc1 (centres undefined)	-1.2	i	0.81	3	100	-312	52
COc1ccc(S(=O)(=O)N2CCn3c2nc2ccccc23)cc1	-0.7	i	0.84	-9	107	-28	55
CCN1C(=O)C(CC(=O)Nc2ccc(OC)cc2)N(Cc2ccc(OC)c(OC)c2)C1=S (centres undefined)	/	i	0.93	/	104	/	/
Cc1ccc(N(Cc2cc3ccc(C)cc3[nH]c2=O)C(=O)c2ccco2)c(C)c1	/	i	0.91	/	96	/	/
O=C(CSc1nnc2ccccn12)N1CCOCC1	-1.8	i	0.87	-4	106	19	86
CCOc1ccccc1CNCc1ccc(C(=O)O)cc1	/	i	0.84	3	102	12	81
CC(C)(C)NC(=O)c1cc(NC(=O)c2ccco2)cc(NC(=O)c2ccco2)c1	-1.0	i	0.8	-7	108	/	/
CCn1ncc([N+](=O)[O-])c1C(=O)Nc1cc(C)on1	-0.4	i	0.99	-6	107	14	123
C#CCSc1nsc(SCC#C)c1C#N	-1.1	i	0.79	-15	92	27	145

A different layout for some results above.
Fields: GALR2 agonist	HSV replic up	HSV replic up primary fold	PKD1 kinase inh	RGS16-Gao HTS	INS promoter inh	INS promoter inh cell count
C#CCSc1nsc(SCC#C)c1C#N
  -1.1	i	0.79	-15	92	27	145
CCN1C(=O)C(CC(=O)Nc2ccc(OC)cc2)N(Cc2ccc(OC)c(OC)c2)C1=S (centres undefined)
  /	i	0.93	/	104	/	/

(more compounds)
Compound	GALR2 agonist	HSV replic up	HSV replic up primary fold	PKD1 kinase inh	RGS16-Gao HTS	INS promoter inh	INS promoter inh cell count
Fc1ccc(-n2cc(CNCCc3cccnc3)c(-c3ccccc3Cl)n2)cc1	/	i	0.78	-3	102	/	/
N#C/C(=C(/O)COC(=O)c1ccc2c(c1)OCCO2)c1nc2ccccc2[nH]1	-1.1	i	1.1	-1	83	-39	121
O=c1[nH][nH]c(-c2ccccc2)c1C=Nc1cccc(Cl)c1	-1.6	i	0.9	1	105	-30	135
CC(C)NC(=O)C12CC3CC(C1)CC(C(=O)NC(C)C)(C3)C2	/	i	1.1	-8	103	/	/
CCCCCC(=O)Nc1nc(C)c(-c2csc(Nc3cc(Cl)ccc3C)n2)s1	-3.3	i	0.83	13	102	/	/
CCOCc1cc(=O)[nH]c(SC)n1	/	i	0.92	/	102	/	/
Cc1cc2nccc(-c3ccco3)n2n1	0.1	i	0.92	4	109	0	104
Cc1cc(C(=O)CCl)c(C)n1CCc1ccc(Cl)cc1	/	i	1.2	-2	101	/	/
COc1ccc(OC)c(NC(=O)C2COc3ccccc3O2)c1 (centres undefined)	-0.5	i	0.96	11	96	-36	141
Cc1c(NC(=O)C(C)OC(=O)c2cc3c4ccccc4n(C)c3s2)c(=O)n(-c2ccccc2)n1C (centres undefined)	-1.2	i	0.98	-7	99	-25	52

High-throughput results (PubChem)
